# Screening data (PubChem)
# NPYLR7 agonist – mosquito NPYLR7 agonism; activation, % at 10 µM; AID 1259423; hit rate 0.15% among 270,000; HEK293T NPYLR7/Galpha15, GCaMP6s calcium fluorescence; in the data active = activation above about 40%;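 note: 0% = vehicle and 100% = reference agonist at the receptor; some compounds past the cut are filed as inactive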
# NPYLR7 agonist max-min – second read-out of NPYLR7 agonist, no call of its own (marks repeat the call); activation, %; measured here: Max-Min RFU normalised activation; some inactives read as strong as hits;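 span of the calcium signal over five minutes; 0% = vehicle and 100% = native peptide agonist; compound fluorescence can raise it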
# Starred values were filed as active, the others as inactive; & = joins results of further samples. Some of the compounds tested (hit frequency here may not be typical).
SMILES,NPYLR7 agonist,NPYLR7 agonist max-min
CN1CCC(N(C)S(=O)(=O)c2ccc3c(c2)CN(C(=O)C(F)(F)F)CC3)CC1,-6.4,-15.1
Cc1ccc2c(NC(=O)c3ccnn3C(C)C)cccc2n1,-0.4,-1.3
CC(N)=C(C#N)C(=O)Cn1cc(S(=O)(=O)N2CCCC2)ccc1=O,21.8,12.9
COc1ccc([C@H](C)NC(=O)c2ccc(-c3cc(-c4cccc5ccccc45)[nH]n3)cc2)cc1,24.7,13.3
O=C(c1cc(F)cc(F)c1)N1CCN(C(=O)c2ccco2)CC1,6.3,10.8
O=[N+]([O-])c1cc(NC(=S)NC2CCCCC2)ccc1Cl,-0.4,-1.5
COc1cc(OC)c2[nH]c(C(=O)N(C)C(C)c3cc4ccccc4o3)cc2c1 (configuration not stated),0.3,1.8
O=C(CCc1nnc(CCCc2ccccc2)o1)NCCc1ccco1,0.5,-2.3
CCO[C@H]1COC[C@@H]1NC(=O)c1ccc2sc(N)nc2c1,5.1,3.4
CC(CCc1ccccc1)NCCS(=O)(=O)N(C)C (configuration not stated),-0.4,-1.6
Cc1ccccc1C(=O)Nc1sc2c(c1C(=O)N1CCN(C)CC1)CCCC2,4.5,2.5
Cc1ccc(-n2ccnc(SCc3ccccc3)c2=O)cc1F,6.1,14.7
CCCN(Cc1cccc(OC)c1)Cc1ccc(C(O)(CCC)CCC)o1,-8.3,-0.4
CN(C)CCN(C)CC1=CCC2CC1C2(C)C (configuration not stated),-12.7,-20.1
COc1ccc(CN(CCN2CCOCC2)CC(O)Cc2ccccc2)cc1 (configuration not stated),16.9,26.4
COCCCN(CC(=O)N1CCc2sccc2C1c1ccc(OC)cc1)C(=O)c1ccc(OC)cc1OC (configuration not stated),18.6,19.2
CCCCc1[nH]nc2ccnc(-c3ccc(C#N)cc3)c12,1.2,-0.2
COc1ccc(CNC(=O)[C@@H]2C[C@H](NC(=O)C3CCC3)CN2C)cc1OC,-0.2,0.9
COc1ccccc1CN(CCc1c[nH]c2ccccc12)Cc1nc(C(=O)N2CCN(C(C)=O)CC2)co1,18.8,26.5
C#CCN(CC#CC)CC(=O)Nc1ccc(N2CC(C)OC(C)C2)cc1 (configuration not stated),8.0,5.0
COc1ccccc1C(=O)N(Cc1csc(COc2cc(C)cc(C)c2C)n1)C1CC1,3.7,17.5
Cc1cccn2c(=O)c3cc(C(=O)NC4CCCCCC4)n(C)c3nc12,2.8,3.8
Cc1c(C(=O)NCCc2cccc(Cl)c2)cnc2c(-c3cccs3)cnn12,20.1,10.1
CCN(C(=O)c1cc(=O)[nH]c2ccc(Cl)cc12)c1ccccc1,-0.2,-1.0
COCc1nnc(NS(=O)(=O)c2ccc(F)cc2)s1,-2.6,-3.4

# Taken from above.
# NPYLR7 agonist max-min result of `O=C(CCc1nnc(CCCc2ccccc2)o1)NCCc1ccco1` is entered as -2.3
# NPYLR7 agonist result of `COc1ccc(CNC(=O)[C@@H]2C[C@H](NC(=O)C3CCC3)CN2C)cc1OC` is entered as -0.2
# NPYLR7 agonist result of `COc1ccc([C@H](C)NC(=O)c2ccc(-c3cc(-c4cccc5ccccc45)[nH]n3)cc2)cc1` is entered as 24.7
# NPYLR7 agonist max-min result of `COc1ccc(CN(CCN2CCOCC2)CC(O)Cc2ccccc2)cc1` (configuration not stated) is entered as 26.4
# NPYLR7 agonist result of `COc1ccccc1C(=O)N(Cc1csc(COc2cc(C)cc(C)c2C)n1)C1CC1` is entered as 3.7
# NPYLR7 agonist max-min result of `CCCN(Cc1cccc(OC)c1)Cc1ccc(C(O)(CCC)CCC)o1` is entered as -0.4

# Some of the entries so far, as tab-separated lines.
mol	NPYLR7 agonist	NPYLR7 agonist max-min
COCCCN(CC(=O)N1CCc2sccc2C1c1ccc(OC)cc1)C(=O)c1ccc(OC)cc1OC (configuration not stated)	18.6	19.2
CCCCc1[nH]nc2ccnc(-c3ccc(C#N)cc3)c12	1.2	-0.2

# Other structures
SMILES,NPYLR7 agonist,NPYLR7 agonist max-min
Oc1ccc(CCC2CCCCN2Cc2nc(C3CC3)no2)cc1 (configuration not stated),-4.5,-7.7
Cc1nc2sccn2c1C(=O)N1CCCC(C(=O)c2cccc(C(F)(F)F)c2)C1 (configuration not stated),5.0,1.8
CCN1CCN(c2c(CN(CCC(C)C)C(=O)c3cccs3)c(C)nn2-c2ccccc2)CC1,-5.3,2.1
COc1cccc(OC)c1-c1cnnc(NCc2cnn(Cc3ccccc3)c2)n1,4.9,2.4
CCOC(=O)c1c(-c2ccc(OC)cc2)csc1NC(=O)c1ccco1,-3.3,-9.7
CCC1CCCCN1CCNC(=O)C1(C)CCN(C(=O)OC(C)(C)C)C1 (configuration not stated),5.6,7.8
CN1CCN(CC(=O)Nc2sc3c(c2C#N)CCC3)CC1,0.1,4.8
c1nc(N2C[C@@H]3C4CCC(CC4)[C@@H]3C2)c2cc[nH]c2n1,7.6,-0.9
C=Cn1cc[n+](CC(=O)c2ccc(Cl)c(Cl)c2)c1,-3.4,-10.1
O=C(Nc1ccc(Nc2ccc(-n3cccn3)nn2)cc1)Nc1cccc(F)c1,-6.2,-9.4
O=C(NC1CC1)c1nn(-c2ccccc2F)c(=O)n(Cc2ccc(C(F)(F)F)cc2)c1=O,3.8,10.2
COc1cccc(OC)c1CC(=O)NC1CC=CCC1 (configuration not stated),3.0,0.0
COCCN(Cc1ccc(OC)c(OS(C)(=O)=O)c1)C(=O)c1ccc(Cl)cc1,8.5,14.4
Cc1c(C(=O)NCC(c2ccsc2)N(C)C)oc2ccccc12 (configuration not stated),-1.3,-3.0
Cc1nn2c(nnc3c(C)nccc32)c1-c1ccccc1,-11.1,-14.8
Cc1ccc(OCC(=O)Nc2ccc(F)cc2Cl)nc1,1.0,0.4
Nc1nc(SCC(=O)Nc2cccc(Cl)c2)[nH]c(=O)c1NC(=O)c1ccccc1F,-1.0,-2.1
NC(=O)[C@@H]1CCCN1C(=O)CCCn1cnc2ccccc2c1=O,4.6,-1.8
CCOc1ccc(-c2ccc(C(=O)N3CCC(Cc4ccccc4)CC3)s2)cc1,25.5,18.2
CCOCCOC(=O)C1=C(C)NC2=C(C(=O)CC(c3ccc(Cl)cc3)C2)C1c1ccccc1Cl (configuration not stated),-7.7,-13.4
O=C(C1=CCCCC1)N1CCC(n2c(-c3ccccc3)nc3ccc(F)cc32)CC1,1.0,-6.1
COC(=O)c1ccc(NC(=O)Cn2nc(-c3ccccc3)c3sc(N4CCCC4)nc3c2=O)cc1,-3.2,-8.9
CCc1csc(CNC(=O)c2ccc(OCC3(C)CCCNC3)nc2)n1 (configuration not stated),4.7,5.3
CC(C)(C)c1ccc(C(=O)Nc2cccc(-c3cccc(-c4ccc(F)cc4)n3)c2)cc1,3.1,-0.6
CCCCN(C(=O)c1cccc(OC)c1)C(CC)c1nc2ccccc2c(=O)n1-c1ccc(OC)cc1 (configuration not stated),9.3,4.6
# Next part
SMILES,NPYLR7 agonist,NPYLR7 agonist max-min
FC(F)Oc1ccc(NC(=S)Nc2cccnc2)cc1Cl,-0.3,-1.7
CC(C)Oc1nc(-c2cccs2)n(-c2cccc(NC(=O)Nc3cccc(Cl)c3)c2)n1,4.0,10.3
Cc1cccnc1N1CCN(C(=O)c2cc(CC(C)C)nc(N)n2)CC1,12.2,9.6
CC(C(=O)Nc1ccc(Cl)cc1)S(=O)(=O)Cc1ccc(F)cc1Cl (configuration not stated),-1.2,2.8
Cc1ccc(NC(=O)CN(C)Cc2nc(N)nc(N(C)C)n2)cc1,10.9,3.8
CS(=O)(=O)N1CCC(C(=O)Nc2nnc(-c3cc4ccccc4o3)o2)CC1,2.4,2.3
CC1CCCN(C(=O)Cn2cnc3c2c(=O)n(C)c(=O)n3C)C1 (configuration not stated),8.7,6.0
CON(C)C(=O)c1c[nH]c2cc(Cl)ccc12,15.6,10.5
Cc1ccc(-n2c(SCc3ccccc3C)nnc2C(C)NC(=O)c2cccc([N+](=O)[O-])c2)cc1 (configuration not stated),12.6,13.6
COc1ccc(CC(=O)Nc2c(C)nc3scc(C)n3c2=O)cc1OC,11.3,4.7
CC(C)n1cnnc1CN(C)Cc1coc2ccc(Cl)cc2c1=O,-0.5,-5.1
CCOC(=O)Cn1c(O)c(N=NC(=O)CNC(=O)c2ccccn2)c2ccccc21,10.5,14.8
CCCC(O)CN1CCC(=O)N(Cc2ccco2)Cc2cc(F)ccc21 (configuration not stated),1.1,5.4
Cc1ccc(S(=O)(=O)N(C)c2nc3ccccc3n3c(-c4ccc(F)cc4)nnc23)cc1,5.9,13.0
Cc1c(-n2cccc2)cccc1-n1cnnc1,0.7,-2.6
COc1cc(CCNC(=O)COc2c(C)ccc(C)c2C)ccc1O,-3.3,-7.5
CCCc1[nH]n(-c2ccc(F)cc2)c(=O)c1C1=C(N(CC)CC)C(=O)N(c2ccccc2F)C1=O,1.1&17.8,7.4&27.2
CC(C)c1nn(Cc2ccccc2F)c(=O)c2c1cnn2C(C)(C)C,10.2,9.0
CCC(CC)NC(=O)CSc1nc(-c2ccco2)nc2ccccc12,-7.5,-6.5
C1COC(CNCC2CC2)C1 (configuration not stated),-0.3,7.0
Cc1cnc(C(NC(=O)C2CCCN(C(=O)C3CC3)C2)C2CC2)s1 (configuration not stated),2.9,2.2
CCOC(=O)CNCc1ccccc1F,-6.9,-7.8
c1ccc(C2C3=C(Nc4ncnn42)c2ccccc2CC3)cc1 (configuration not stated),1.2,42.0
FC(F)(F)c1ccc(NN=Cc2cccnc2)nc1,5.9,6.6
O=C(COc1ccccc1)Nc1cc(-c2onc3c2CCCC3)cc(C(F)(F)F)c1,18.8,21.5

# Given with two lines to a compound: part of the list above.
# Order of results – NPYLR7 agonist	NPYLR7 agonist max-min
CCCC(O)CN1CCC(=O)N(Cc2ccco2)Cc2cc(F)ccc21 (configuration not stated)
→ 1.1	5.4
Cc1ccc(S(=O)(=O)N(C)c2nc3ccccc3n3c(-c4ccc(F)cc4)nnc23)cc1
→ 5.9	13.0
Cc1c(-n2cccc2)cccc1-n1cnnc1
→ 0.7	-2.6

# More structures.
SMILES,NPYLR7 agonist,NPYLR7 agonist max-min
CC(=O)Nc1ccc(CC(=O)N2CCc3sccc3C2)cc1,-8.2,-7.8
CCCNC(=O)C(NC(=O)c1ccc(F)cc1)C1CCN(S(=O)(=O)c2ccc(Cl)cc2)CC1 (configuration not stated),0.6,1.1
c1cncc(-c2nc(Sc3nnc(C4CC4)o3)c3ccccc3n2)c1,0.6,1.3
CCCCNC(=O)C(C#N)=Cc1cc(Br)ccc1F,0.7,4.4
CN(Cc1cnn(C)c1)C(=O)CC1(c2cccc(C(F)(F)F)c2)CC(=O)N(C2CC2)C1=O (configuration not stated),19.5,10.5
CC(=O)Nc1ccnn1C1CCN(Cc2cc(F)ccc2-n2nc(C)cc2C)CC1,15.4,-1.0
Cc1occc1C(=O)NNC(=O)c1oc2ccccc2c1C,8.8,4.5
CCc1ccccc1CN1CCCn2cccc2C1c1ccc(Cl)cc1 (configuration not stated),22.6,26.4
CCCCN(Cc1ccc(F)cc1)C(=O)CNC(=O)N(C)C,6.0,-0.3
Cc1c(C(=O)Nc2nccn2CC(C)C)oc2c1C(=O)CC(C)(C)C2,13.2,12.0
Nc1nc(CN(Cc2c(F)cccc2Cl)C2CC2)nc2ccccc12,1.9,0.0
CNS(=O)(=O)c1ccc(CNC(=O)Nc2ccccc2F)s1,6.6,3.5
CCC(c1ccccc1)C1(O)OC(=O)c2ccccc21 (configuration not stated),9.5,8.2
CC(=O)c1c(SCC(=O)Nc2ccccc2)nc(=O)[nH]c1C,22.4,22.3
CN1CCC(N(C)Cn2c(=S)n(-c3ccccc3)c3ccccc32)CC1,2.0,-1.7
O=C(/C=C/c1ccc([N+](=O)[O-])cc1)N1CCc2nc(-c3ccccc3)nc(N3CCOCC3)c2C1,12.9,18.1
CC(=O)Nc1ccc(C(=O)N2CCN(C)C3(CCN(C)CC3)C2)cc1,-2.0,9.4
CCOC(=O)c1ccc2c(c1)nc(SCc1ccc(C(=O)OC)cc1OC)n2CCOC,25.7,36.6
COc1cccc(C2CCCN2c2ccc(-c3nc(C4CC4)no3)cn2)c1 (configuration not stated),7.8,4.2
CC(NC(=O)c1ccc(Br)cc1F)C(=O)N1CCOCC1 (configuration not stated),14.6,14.9

# Reformatted: 3 of the compounds above
# Sequence of screens: NPYLR7 agonist, NPYLR7 agonist max-min
Nc1nc(CN(Cc2c(F)cccc2Cl)C2CC2)nc2ccccc12
→ 1.9, 0.0
CCCNC(=O)C(NC(=O)c1ccc(F)cc1)C1CCN(S(=O)(=O)c2ccc(Cl)cc2)CC1 (configuration not stated)
→ 0.6, 1.1
Cc1c(C(=O)Nc2nccn2CC(C)C)oc2c1C(=O)CC(C)(C)C2
→ 13.2, 12.0
